FGF22 binding = binders of recombinant human FGF22 by thermal shift; Q9HCT0; SYPRO orange fluorescence; percent of sucrose octasulfate shift, DMSO zero; calls only at 9.99 µM; 340,000 compounds, 1.5% hits;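 active means melting point raised past a set limit in the mean and every replicate; inconclusive means no clear call; three in four hits are not shown here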
Target sequence (Q9HCT0 whole entry, looked up): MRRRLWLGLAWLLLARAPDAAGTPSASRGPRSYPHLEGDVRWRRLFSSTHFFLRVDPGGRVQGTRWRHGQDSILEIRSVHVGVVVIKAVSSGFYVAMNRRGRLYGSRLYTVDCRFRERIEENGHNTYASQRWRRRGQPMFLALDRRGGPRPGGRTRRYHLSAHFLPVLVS
Vif TR-FRET = inhibitors of Vif binding to APOBEC3G peptide, primary screen, biochemical, TR-FRET, GST-Vif 1-94, biotin-A3G peptide, dose response retest (AID 1117319); inhibition, %, or IC50 in µM where a hit was titrated; 260,000 compounds, 0.57% hits; TR-FRET GST-Vif / biotin-A3G peptide binding; higher % means a stronger effect; test concentration not given here; strong numbers were not always called active;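 active means above the screen mean plus three standard deviations and confirmed in dose response; inconclusive means results disagree or hit not tested in dose response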;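 further: Vif residues 1-94 fused to GST binding biotinylated APOBEC3G peptide 110-148; 0% = full assay without inhibitor and 100% = GST in place of GST-Vif; retest series ran down from 100 µM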
HNF4A DNA FP = change in binding of human HNF4 alpha to DNA; P41235; HNF4a-FITC DNA binding, fluorescence polarization, 1 h; activity change, % at 10 µM; 360,000 compounds, 0.3% hits; in the data active means activity change above about 30%, passing the limit was not always enough;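 further: controls were the assay level and a saturating level of protein; the project sought stronger binding though the title names inhibitors; some compounds called inactive have numbers as strong as hits; positive values seem to mean higher polarization but the record does not say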
RanGTP-Imp inh = disruptors of Ran-importin-beta complex formation – biochemical, FRET, CFP-Ran, YFP-importin-beta, homogeneous, primary screen. cell-free CFP-Ran/YFP-importin-beta FRET ratio. inhibition, % (concentration not given with the values). 300,000 compounds, 1.1% hits;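 active means most replicates above 15%; inconclusive means exactly half above 15%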;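 further: 0% = DMSO wells and 100% = Ran loaded with GDP instead of GTP; wells of about 40 µL received 100 nL stock; the first replicate is given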
Ecoli growth = blocks Escherichia coli growth; OD600, 23 h; hits give low values; OD600 absorbance (test concentration not listed); 330,000 compounds, 0.21% hits;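 active means OD600 absorbance below the run mean of sample wells minus 3.6 SD, in any replicate, cut at about 0.56 in these data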;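 further: stock transfer was 300 nL into about 60 µL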
AF4-AF9 inh = MLL-AF4/AF9 protein interaction inhibition; AlphaScreen, biotin-AF4 peptide binding to FLAG-AF9; inhibition, % at 10 µM; 350,000 compounds, 0.47% hits; AID 651704; P42568;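 active means every replicate reaching a set inhibition limit, whatever the replicate mean, cut at about 25% in these data; inconclusive means mean inhibition reaches that limit but some replicates miss it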;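 further: 0% = plate neutral control median and 100% = total signal loss; the record names both 10 and 1 µM as test concentration; the first replicate is given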
Target sequence (P42568 whole entry, looked up): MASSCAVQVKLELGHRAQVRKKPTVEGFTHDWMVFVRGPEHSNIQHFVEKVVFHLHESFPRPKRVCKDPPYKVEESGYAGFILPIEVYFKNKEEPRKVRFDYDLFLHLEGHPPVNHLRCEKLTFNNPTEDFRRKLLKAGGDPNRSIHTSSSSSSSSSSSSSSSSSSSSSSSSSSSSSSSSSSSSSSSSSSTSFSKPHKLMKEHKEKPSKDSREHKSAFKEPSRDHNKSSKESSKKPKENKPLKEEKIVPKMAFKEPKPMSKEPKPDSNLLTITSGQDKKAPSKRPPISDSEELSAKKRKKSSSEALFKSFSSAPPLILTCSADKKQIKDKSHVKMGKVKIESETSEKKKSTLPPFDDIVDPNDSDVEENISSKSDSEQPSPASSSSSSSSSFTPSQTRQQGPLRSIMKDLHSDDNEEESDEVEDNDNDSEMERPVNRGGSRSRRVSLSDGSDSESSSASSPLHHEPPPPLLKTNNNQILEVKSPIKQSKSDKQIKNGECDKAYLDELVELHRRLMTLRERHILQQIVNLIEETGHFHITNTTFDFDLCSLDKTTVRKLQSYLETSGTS
UCH37 inh = human UCH37 deubiquitinating enzyme inhibition; inhibition, % (no concentration beside the values); Q9Y5K5; purified proteasome/UCH37, Ub-AMC cleavage fluorescence; 330,000 compounds, 0.33% hits;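 active means mean of two replicates above 20%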;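 further: 0% = compound-free wells with enzyme and 100% = wells lacking proteasome; stock transfer was 100 nL into about 20 µL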
Target sequence (Q9Y5K5 whole entry, looked up): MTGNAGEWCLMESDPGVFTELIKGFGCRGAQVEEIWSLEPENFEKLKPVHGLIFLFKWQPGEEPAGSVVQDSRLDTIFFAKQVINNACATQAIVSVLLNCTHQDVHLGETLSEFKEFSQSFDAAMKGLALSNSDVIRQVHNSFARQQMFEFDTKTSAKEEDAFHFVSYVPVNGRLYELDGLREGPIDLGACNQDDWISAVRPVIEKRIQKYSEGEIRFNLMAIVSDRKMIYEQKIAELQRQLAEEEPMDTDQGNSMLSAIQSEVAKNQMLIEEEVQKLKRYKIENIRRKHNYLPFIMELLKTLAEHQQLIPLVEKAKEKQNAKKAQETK
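assay system = human UCH37 enzyme supplied as purified proteasome complex | amount = proteasome at 0.15 nM in the dispensed enzyme solution | schedule = 30 min compound-proteasome preincubation then 25 min substrate reaction, room temperature | measured by = fluorescence, ex 355 nm, em 460 nm | benchmarks = no-proteasome wells (full inhibition) and compound-free wells (no inhibition)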
Starred values were filed as active, the others as inactive; i = inactive; ? = inconclusive; . = no result given; & = joins results of further samples. The list is partial, so the mix of outcomes need not match the whole.

cpd	Compound	FGF22 binding	UCH37 inh	Vif TR-FRET	RanGTP-Imp inh	Ecoli growth	HNF4A DNA FP	AF4-AF9 inh
1	O=C(Nc1ccccc1)/C(=C/c1cccnc1)NC(=O)c1ccccc1	i	-3.1	-1%	-2.4	0.7	0.6	-0.9
2	COc1cc(Cl)c(C)cc1NC(=O)COc1cc(C)nc(C(C)C)n1	.	0.5	74%	-3.0	0.71	-3.2	.
3	O=C(NC(=S)NC1CCCC1)c1ccccc1	i	-0.5	.	1.9	0.71	3.5	-24
4	CSc1ccccc1C(=O)NCCOc1ccccc1C	i	0.9	-7%	1.7	0.69	2.2	-0.6
5	CSCCC(NS(=O)(=O)c1ccc(C)cc1)C(=O)N1CCN(C(c2ccccc2)c2ccccc2)CC1 (stereo unspecified)	i	-0.8	-4%	-1.7	0.72	2.0	2.0
6	O=S(=O)(c1ccccc1)c1nc(-c2cccs2)oc1NCCCn1ccnc1	.	8.8	3%	2.2	0.79	1.7	.
7	Cc1nc2sc(C(c3cccs3)N3CCN(Cc4ccccc4)CC3)c(O)n2n1 (stereo unspecified)	i	4.7	2%	0.7	0.74	-4.3	5.4
8	Cc1nn(Cc2ccc(Cl)cc2)c(C)c1NC(=O)Cn1nc([N+](=O)[O-])c(Cl)c1C	.	-1.1	-6%	0.3	0.76	-3.1	.
9	CC(C)(C)c1ccc(S(=O)(=O)N2CCN(C3CCCC3)CC2)cc1	i	4.3	.	-2.2	0.72	-5.5	-1.9
10	Cc1nnc(SCC(=O)Nc2ccc(F)cc2F)n(N)c1=O	i	1.1	-8%	-17	0.72	-2.9	-2.7
11	CCOc1ccc(N2C(=O)CC(NCc3ccc(S(N)(=O)=O)cc3)C2=O)cc1 (stereo unspecified)	i	-0.3	1%	5.8	0.7	1.9	-2.0
12	CCC(c1nnnn1Cc1ccc2c(c1)OCO2)N1CCN(CC)CC1 (stereo unspecified)	i	2.8	-8%	3.2	0.62	-4.0	-0.6
13	O=C(NCc1ccncc1)c1ccc(OCc2ccccc2)cc1	i	.	4%	-4.6	.	-2.2	-13
14	Cc1sc2ncnc(SCC(=O)N3CCCC(C(F)(F)F)C3)c2c1C (stereo unspecified)	i	4.2	-5%	0.4	0.73	-1.4	0.2
15	Cc1ccc(-n2c(SCC(=O)N(C)C3CCS(=O)(=O)C3)nc3ccccc3c2=O)c(C)c1 (stereo unspecified)	i	1.0	-3%	.	0.69	-0.9	-1.8
16	COc1ccc(CCNC(=O)c2sc3nc4n(c(=O)c3c2C)CCC4)cc1	i	2.2	0%	1.8	0.64	2.1	-59
17	COc1ccc(NC(=S)N2CCC(NC(=O)c3ccc(OC)cc3)CC2)cc1	i	-0.9	4%	4.0	0.68	5.9	-2.2
18	CN(c1ccccc1)S(=O)(=O)c1cccc(C(=O)Nc2nn[nH]n2)c1	i	-0.5	.	1.4	0.69	2.7	-2.3
19	CN(C(=O)c1ccc(-c2ccccc2)cc1)C1CCCCC1	i	7.0	.	4.4	0.67	0.4	0.1
20	Cc1ccc(C(=O)N/C(=C/c2ccccc2)C(=O)NCC2CCCO2)cc1 (stereo unspecified)	.	0.2	9%	0.9	.	-0.4	-1.8
21	CCC(NC(=O)OC(C)(C)C)C(=O)Oc1ccc2c3c(c(=O)oc2c1)CCC3 (stereo unspecified)	.	i	28%	-1.9	0.64	1.7	.
22	CNc1nc(C(=O)O)nc(N2CCOCC2)n1	i	-2.6	7%	?	0.67	-1.3	1.1
23	CCOC(=O)c1ccccc1NC(=O)CSc1nc2ccccc2n1CC(=O)N1CCCC1	.	5.4	6%&-8%	0.7	0.69	-1.6	.
24	O=C(COc1ccccc1F)Nc1nnc(C2CCCC2)s1	i	-2.3	.	0.5	0.69	21	-2.0
25	CC(C)(C)C(=O)NC(n1cnc2c(N3CCOCC3)ncnc21)C(Cl)(Cl)Cl (stereo unspecified)	i	2.1	.	-1.9	0.69	4.7	1.1
26	COc1cccc(-c2c(-c3cc(OC)cc(OC)c3)n(C)c3ccc(-c4ccc5cc[nH]c5c4)cc23)c1	i	-11	.	.	0.71	2.6	2.5
27	CCN(CCNC(=O)Nc1ccc(Cl)cc1)c1ccccc1	.	2.8	13%	-1.1	0.71	0.7	.
28	O=C1CC(C(=O)N2CCOCC2)C2(CCCCC2)O1 (stereo unspecified)	i	1.6	-1%	-4.1	0.71	3.3	1.3
29	O=C(NCC(O)c1ccc([N+](=O)[O-])cc1)c1cccc(S(=O)(=O)N2CCOCC2)c1 (stereo unspecified)	i	1.1	.	1.5	0.7	-1.3	1.2
30	N#Cc1ccccc1NC(=O)COC(=O)/C=C/c1ccc(S(=O)(=O)N2CCOCC2)cc1	i	2.7	.	.	0.71	-0.1	0.1
31	COc1cc2ncnc(NCc3cc(F)ccc3F)c2cc1OC	i	0.2	-21%	1.2	0.67	4.4	-2.1
32	CC1CCN(C(=O)c2ncn(Cc3ccccc3)c2C(=O)N2CCC(C)CC2)CC1	i	-0.2	.	.	0.65	-0.2	0.1
33	C=CCn1c(SCC(=O)NCCO)nc2sc(C)c(C)c2c1=O	i	2.8	6%	-2.2	0.67	2.7	0.6
34	CN(CCc1ccccn1)C(=O)Nc1ccc(C(C)(C)C)cc1	i	4.7	.	-0.6	0.66	0.1	-1.6
35	C=CCc1cc(C=O)cc(OC)c1OCc1ccc(Cl)cc1	.	4.1	20%	2.3	0.74	-1.9	.
36	CN1CC[n+]2cnc3ccccc3c21	.	-12	3%	2.6	0.73	2.5	.
37	CN(C)c1ccc(-c2ccnc3c2CC(C)(C(=O)NCCc2ccccc2)O3)cc1 (stereo unspecified)	i	.	.	.	.	4.3	13
38	COc1cc(Nc2ncnc(N)n2)cc(OC)c1	i	3.5	-8%	0.7	0.65	2.0	.
39	CC(C)CC(=O)NCc1ccc2[nH]c3c(c2c1)CCCC3	.	5.2	6%	2.0	0.66	1.7	3.0
40	O=C(O)C1CC(=O)N(c2ccc(OCc3ccccc3Cl)cc2)C1 (stereo unspecified)	.	1.7	6%	-3.8	0.73	3.0	.
41	COc1ccc2nc(Nc3nc(-c4cc5ccccc5oc4=O)cs3)sc2c1	.	-2.0	4%	5.6	0.7	2.7	.
42	CN(c1ccccc1)S(=O)(=O)c1ccc(C(=O)NCc2ccco2)cc1	.	3.3	-5%	.	0.67	0.5	2.3
43	O=c1[nH]cnc2ncc(-c3ccc(O)cc3)nc12	i	9.4	.	2.2	0.69	-3.7	0.7
44	O=C(CCS(=O)(=O)Cc1ccccc1)NC1CCCCC1	.	3.0	1%	.	0.72	-2.4	.
45	CCC1(CC)SCCNC1=O	i	5.4	-3%	.	0.68	-3.0	-18
46	CCN(CC)C(=O)Cn1cc(C(=O)C(=O)NCCCn2ccnc2)c2ccccc21	i	1.9	3%	-1.9	0.69	0.4	1.3
47	CN(C(=O)CSc1nnc(C(F)(F)F)n1N)C1CCS(=O)(=O)C1 (stereo unspecified)	i	.	2%	3.0	.	-2.1	-3.0
48	O=C(Nc1cc(Cl)cc(Cl)c1)Nc1cnccn1	i	4.8	.	3.0	0.69	-1.4	-4.5
49	COCCNC(=O)/C(C#N)=C/c1ccc(N2CCOCC2)o1	.	38*	0%	50*	0.71	155	.
50	CCCCn1c(/N=C/c2cc(OC)ccc2O)nc2ccccc21	.	.	-3%	1.4	.	2.7	.
51	CSc1ccccc1OCc1cc(C(=O)N2CCC(c3ccncc3)CC2)no1	i	.	22%	1.3	.	2.1	2.9
52	COC(=O)c1ccc(NC(=O)c2ccccc2SC)cc1	.	1.9	-6%	-3.3	0.68	4.8	1.3
53	CC1CCN(C(C(=O)O)c2ccccc2)CC1 (stereo unspecified)	i	3.6	-8%	0.4	0.62	2.6	1.1
54	O=C(CN1CCN(c2ncccn2)CC1)NCc1ccccc1	.	2.8	0%	5.2	0.73	3.9	.
55	O=C1c2ccccc2C(c2nnnn2-c2ccc3c(c2)OCCO3)N1C1CC1 (stereo unspecified)	i	.	.	.	.	-2.4	0.6
56	O=C(Nn1c(-c2ccccc2)nc2ccccc2c1=O)c1ccco1	.	3.5	2%	?	0.73	1.4	.
57	Cc1ccc2[nH]cc(C(=O)CN3CCOCC3)c2c1	i	0.3	4%	-2.2	0.74	1.5	-56
58	Cc1ccc(S(=O)(=O)N(Cc2cccnc2)Cc2cc3ccccc3[nH]c2=O)cc1	.	0.5	.	10.0	0.68	-3.6	29*
59	Cc1cc([N+](=O)[O-])nn1CC(=O)NC1CCCCC1	i	6.2	.	-1.4	0.73	0.5	0.1
60	Cc1cc(=O)oc2cc3c(cc12)OCO3	i	i	-4%	?	0.66	0.0	-1.4

The final two compounds of the section before open the next one:
cpd	Compound	FGF22 binding	UCH37 inh	Vif TR-FRET	RanGTP-Imp inh	Ecoli growth	HNF4A DNA FP	AF4-AF9 inh
59	Cc1cc([N+](=O)[O-])nn1CC(=O)NC1CCCCC1	i	6.2	.	-1.4	0.73	0.5	0.1
60	Cc1cc(=O)oc2cc3c(cc12)OCO3	i	i	-4%	?	0.66	0.0	-1.4
61	CC(Oc1ccccc1)C(=O)Nc1ccc(S(=O)(=O)NCC2CCCO2)cc1 (stereo unspecified)	.	4.9	8%	1.6	0.74	-1.7	.
62	Cc1ccc(C)c(OCCC(=O)OCC(=O)NC(=O)NCc2ccccc2)c1	i	4.1	.	?	0.7	-0.8	-2.1
63	O=C(NC(=S)Nc1ccccc1)c1ccc(Br)o1	i	-0.9	-25%	-1.1	0.69	2.9	-4.2
64	CCOC(=O)C(C)C1(O)c2ccccc2-c2ncccc21 (stereo unspecified)	.	6.2	?	1.7	0.66	-2.1	.
65	COc1ccc(C(CNC(=O)c2cccc(S(=O)(=O)Nc3ccc(C)cc3)c2)N2CCOCC2)cc1 (stereo unspecified)	.	-1.5	2%	1.6	0.7	1.8	-5.2
66	CCCCC(=O)N1CCCC(c2nc3c(nnn3Cc3cc(C)ccc3C)c(=O)[nH]2)C1 (stereo unspecified)	.	1.5	10%	0.1	0.72	3.3	.
67	CC1CCCN(C(=O)COC(=O)C2CCN(S(=O)(=O)c3c(Cl)cccc3Cl)CC2)C1 (stereo unspecified)	i	0.4	-1%	1.2	0.69	4.1	-1.3
68	Cc1cc(NC(=O)Cc2ccccc2)no1	.	-0.2	1%	5.2	0.7	-3.6	.
69	Cc1cc2c(cc1C)NC1(C[C@H]3CCC(=O)N4CC[C@@H](C1)[C@@H]34)C(=NC(C)(C)CC(C)(C)C)N2 (stereo partly specified)	i	.	.	.	.	-2.1	55*
70	CCOC(=O)[C@@H]1[C@H]2COc3cc(OC)ccc3[C@H]2N2C(=O)N(c3cccc(Cl)c3)C(=O)[C@@]12C	.	1.8	.	2.7	.	-0.6	.
71	CC(=O)c1cc(NC(=O)c2cccc(C(F)(F)F)c2)c(=O)oc1/C=C/N(C)C	.	8.6	10%	-0.6	0.69	129	.
72	Cc1ccc(NC(=S)Nc2ccc3cn[nH]c3c2)c(C)c1	i	3.1	-7%	8.8	0.72	1.6	1.6

Sorted by count of non-hydrogen atoms (low to high): part of the list above.
cpd	Compound	FGF22 binding	UCH37 inh	Vif TR-FRET	RanGTP-Imp inh	Ecoli growth	HNF4A DNA FP	AF4-AF9 inh
64	CCOC(=O)C(C)C1(O)c2ccccc2-c2ncccc21 (stereo unspecified)	.	6.2	?	1.7	0.66	-2.1	.
71	CC(=O)c1cc(NC(=O)c2cccc(C(F)(F)F)c2)c(=O)oc1/C=C/N(C)C	.	8.6	10%	-0.6	0.69	129	.
66	CCCCC(=O)N1CCCC(c2nc3c(nnn3Cc3cc(C)ccc3C)c(=O)[nH]2)C1 (stereo unspecified)	.	1.5	10%	0.1	0.72	3.3	.
